# Vaccinia inh: blocks a specific stage of Vaccinia orthopoxvirus infection. Vaccinia-infected cells, mCherry/Venus stage reporter fluorescence; active compounds read low; some inactives read as strong as hits. activity change (mCherry), % (no concentration beside the values). 89,000 tested, 0.01% active. AID 1053133;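 active means mCherry past -33% and 40 or more points under the early reporter, replicates agreeing; inconclusive means past -33% without that gap or agreement; tested in A549 cells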;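 further: scaled between vehicle wells and reference inhibitor wells; 23 nL library stock went into each well; one replicate is shown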
# Vaccinia inh Venus: second read-out of Vaccinia inh, no call of its own (marks repeat the call); activity change (Venus), %; measured here: Venus reporter, other viral stage;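 negative = less Venus signal; first of two replicates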
# Numbers without * were called inactive; u = inconclusive; x = no result given.
SMILES,Vaccinia inh,Vaccinia inh Venus
C[C@H](CO)N1C[C@H](C)[C@@H](CN(C)S(C)(=O)=O)Oc2ccc(NC(=O)C3CCCCC3)cc2CC1=O,3,2
C[C@H]1CN([C@@H](C)CO)C(=O)c2cc(NC(=O)Cn3cnnn3)ccc2O[C@H]1CN(C)Cc1ccc(C(F)(F)F)cc1,4,-1
CO[C@H](CN(C)C(=O)c1ccccc1F)[C@@H](C)CN([C@@H](C)CO)S(=O)(=O)c1ccc(Cl)cc1,-3,3
CCCN1[C@@H]2Cn3c(ccc(C4=CCCCC4)c3=O)[C@H]1[C@@H](C(=O)N1CCc3ccccc3C1)[C@@H]2CO,-26,-15
CCC(=O)N1CC(=O)N2[C@H](CO)[C@@H](c3ccc(-c4cccnc4)cc3)[C@H]2C1,27,11
C[C@@H]1CN([C@H](C)CO)C(=O)c2cccc(NC(=O)c3ccncc3)c2O[C@H]1CN(C)Cc1ccc(C(F)(F)F)cc1,10,7
Cc1ccc(S(=O)(=O)N[C@@H]2CC[C@@H](CC(=O)NCCc3ccncc3)O[C@@H]2CO)cc1,4,0
C[C@@H]1CN([C@@H](C)CO)C(=O)c2cc(C#C[C@@H](C)O)cnc2O[C@H]1CN(C)Cc1cccc(F)c1,0,0
Cc1noc(C)c1NC(=O)Nc1cccc2c1O[C@H](CN(C)Cc1ccc3c(c1)OCO3)[C@H](C)CN([C@@H](C)CO)C2=O,13,15
C[C@@H]1CN([C@@H](C)CO)C(=O)c2c(c3ccccc3n2C)-c2ccccc2CO[C@@H]1CN(C)S(=O)(=O)Cc1ccccc1,u,x
C[C@H](O)C#Cc1ccc2c(c1)O[C@@H](CN(C)C(=O)CC1CC1)[C@H](C)CN([C@H](C)CO)S2(=O)=O,9,12
Cc1cc(C(=O)Nc2cccc3c2O[C@H](CN(C)C(=O)Nc2ccccc2)[C@@H](C)CN([C@@H](C)CO)C3=O)n(C)n1,23,21
CC(C)[C@@H]1COCn2nncc2CC[C@H](Cc2ccccc2)C(=O)N1,2,10
Cc1ccccc1S(=O)(=O)N1C[C@@H](O)COC[C@@H]2O[C@H](CC(=O)N3CCN(C)CC3)CC[C@H]21,-2,-2
CC(=O)N1CCCCN2[C@@H](CO)[C@@H](c3ccc(-c4cccc(C)c4)cc3)[C@@H]2C1,u,x
C[C@@H]1CN([C@H](C)CO)C(=O)c2cccc(NS(=O)(=O)c3ccc(Cl)cc3)c2O[C@@H]1CN(C)C,10,1
CN(C)CC(=O)N1[C@H](C#N)[C@@H](c2ccc(-c3cccc(C(=O)N(C)C)c3)cc2)[C@H]1CO,-4,-5
C[C@H]1CN([C@@H](C)CO)S(=O)(=O)c2ccc(C3=CCCC3)cc2O[C@@H]1CN(C)C(=O)c1cccnc1,27,19
O=C(CC1CC1)N1CC2(C1)[C@H](c1ccccc1)[C@@H](CO)N2C(=O)c1cnccn1,-2,3
O=C(C[C@@H]1C[C@H]2c3cc(NC(=O)C4CCC4)ccc3O[C@H]2[C@@H](CO)O1)NCc1ccc2c(c1)OCO2,11,2
C[C@@H]1CN([C@@H](C)CO)C(=O)Cc2cc(NC(=O)Cn3cnnn3)ccc2O[C@H]1CN(C)CC1CCCCC1,-8,-6
CN1CCN(C(=O)C[C@H]2CC[C@H]3[C@@H](COc4ccc(NC(=O)C5CC5)cc4C(=O)N3C)O2)CC1,13,13
COC(=O)C[C@@H]1CC[C@H]2[C@H](COc3ccc(NC(=O)c4ccc(F)c(F)c4)cc3C(=O)N2C)O1,-8,-6
CCCN1[C@@H]2c3ccc(-c4ccccc4OC)c(=O)n3C[C@H]1[C@H](CO)[C@H]2C(=O)NCc1ccccn1,-4,0

# Another view of some results above.
molecule | Vaccinia inh | Vaccinia inh Venus
CC(=O)N1CCCCN2[C@@H](CO)[C@@H](c3ccc(-c4cccc(C)c4)cc3)[C@@H]2C1 | u | x
C[C@@H]1CN([C@H](C)CO)C(=O)c2cccc(NS(=O)(=O)c3ccc(Cl)cc3)c2O[C@@H]1CN(C)C | 10 | 1
CN(C)CC(=O)N1[C@H](C#N)[C@@H](c2ccc(-c3cccc(C(=O)N(C)C)c3)cc2)[C@H]1CO | -4 | -5
C[C@H]1CN([C@@H](C)CO)S(=O)(=O)c2ccc(C3=CCCC3)cc2O[C@@H]1CN(C)C(=O)c1cccnc1 | 27 | 19
O=C(CC1CC1)N1CC2(C1)[C@H](c1ccccc1)[C@@H](CO)N2C(=O)c1cnccn1 | -2 | 3
O=C(C[C@@H]1C[C@H]2c3cc(NC(=O)C4CCC4)ccc3O[C@H]2[C@@H](CO)O1)NCc1ccc2c(c1)OCO2 | 11 | 2
C[C@@H]1CN([C@@H](C)CO)C(=O)Cc2cc(NC(=O)Cn3cnnn3)ccc2O[C@H]1CN(C)CC1CCCCC1 | -8 | -6
CN1CCN(C(=O)C[C@H]2CC[C@H]3[C@@H](COc4ccc(NC(=O)C5CC5)cc4C(=O)N3C)O2)CC1 | 13 | 13
COC(=O)C[C@@H]1CC[C@H]2[C@H](COc3ccc(NC(=O)c4ccc(F)c(F)c4)cc3C(=O)N2C)O1 | -8 | -6
CCCN1[C@@H]2c3ccc(-c4ccccc4OC)c(=O)n3C[C@H]1[C@H](CO)[C@H]2C(=O)NCc1ccccn1 | -4 | 0

# Further records:
SMILES,Vaccinia inh,Vaccinia inh Venus
C[C@@H]1CN([C@@H](C)CO)S(=O)(=O)c2ccc(C#CCN(C)C)cc2O[C@@H]1CN(C)C(=O)C1CCC1,2,11
C[C@H](CO)N1C[C@H](C)[C@H](CN(C)C(=O)c2ccncc2)Oc2cc(C#CC3(O)CCCC3)ccc2S1(=O)=O,26,19
CCCN1C[C@@H](C)[C@H](OC)CN(C)C(=O)c2ccc(NC(=O)c3cccc(OC)c3)cc2OC[C@H]1C,-3,-5
C[C@@H]1CN([C@@H](C)CO)C(=O)c2cccc(NC(=O)C3CCCCC3)c2O[C@@H]1CN(C)S(=O)(=O)c1ccccc1,-11,-4
C[C@@H]1CN([C@H](C)CO)C(=O)Cc2cc(NS(=O)(=O)c3cn(C)cn3)ccc2O[C@H]1CN(C)S(=O)(=O)c1ccccc1,-4,0
CC(=O)N1CC2(C1)[C@H](c1ccccc1)[C@H](CO)N2Cc1cc(F)ccc1F,3,0
C[C@@H]1CCCCO[C@@H](CN(C)C(=O)Cc2ccccc2)[C@@H](C)CN([C@@H](C)CO)C(=O)c2cc(NC(=O)Nc3ccccc3)ccc2O1,25,14
C=CCN1C(=O)[C@@]2(O[C@@H](CCn3cc([C@H](O)c4ccccc4)nn3)[C@H]([Si](C)(C)c3ccc(OC)cc3)[C@H]2C)c2ccccc21,u,x
C[C@@H]1CN([C@H](C)CO)C(=O)c2ccccc2-c2ccccc2CO[C@H]1CN(C)C(=O)[C@@H](Cc1ccccc1)N(C)C,7,11
CN1CCN(C(=O)[C@@H]2[C@@H](CO)[C@@H]3Cn4c(cccc4=O)[C@H]2N3S(=O)(=O)c2ccccc2F)CC1,5,3
C/C=C/c1ccc([C@H]2[C@@H](CO)N(C(=O)C3CC3)[C@H]2CN(C)C(=O)CC)cc1,1,11
C[C@H](CO)N1C[C@H](C)[C@H](CN(C)C)Oc2cc(C#C[C@@H](C)O)ccc2S1(=O)=O,25,8
CO[C@@H]1CC[C@@H]2CCN(C)C(=O)[C@@H](C)CN(C)C(=O)c3cccc(C#N)c3OC[C@H]1O2,14,9
COCC(=O)N1CC(=O)N2[C@@H](CO)[C@H](c3ccc(C#CCc4ccccc4)cc3)[C@@H]2C1,25,4
CO[C@H]1CN(C)C(=O)c2cc(NS(=O)(=O)c3cn(C)cn3)ccc2OC[C@@H](C)N(CC2CC2)C[C@@H]1C,7,9
O=C(C[C@H]1C[C@@H]2c3cc(NC(=O)Nc4ccc(C(F)(F)F)cc4)ccc3O[C@@H]2[C@H](CO)O1)NCc1ccc2c(c1)OCO2,14,9
C[C@@H]1CN([C@@H](C)CO)C(=O)c2cc(NS(=O)(=O)c3cccs3)ccc2O[C@H]1CN(C)Cc1ccc2c(c1)OCO2,16,6
CCCNC(=O)C[C@@H]1CC[C@@H]2[C@H](COc3ccc(NC(=O)NC(C)C)cc3C(=O)N2C)O1,22,17
COC(=O)C[C@H]1CC[C@H]2[C@H](COc3ccc(NS(=O)(=O)c4ccc(F)cc4)cc3C(=O)N2C)O1,4,-5
O=C(NC[C@H]1CC[C@@H]2NC[C@@H]2O1)C1CCCC1,1,1
CO[C@@H](CN(C)Cc1cc(F)ccc1F)[C@@H](C)CN([C@H](C)CO)S(=O)(=O)c1ccc(C)cc1,-12,-1
Cc1cccc(-c2ccc([C@@H]3[C@@H](CO)N4C(=O)CN(C(=O)Cc5ccccn5)C[C@H]34)cc2)c1,-1,2
C[C@@H](NC(=O)N(C)C[C@H]1OCc2ccccc2-c2c(n(C)c3ccccc23)C(=O)N([C@@H](C)CO)C[C@@H]1C)c1ccccc1,u,x
COc1cccc(-c2ccc([C@H]3[C@H]4CNCC(=O)N4[C@H]3CO)cc2)c1,4,6
COc1ccc(C#Cc2ccc([C@H]3[C@H]4CN(Cc5ccncc5)CCCCN4[C@H]3CO)cc2)cc1,-24,-13
O=C(NCC[C@@H]1CC[C@H](NS(=O)(=O)c2ccc(Cl)cc2)[C@H](CO)O1)c1ccccc1F,-13,-8
C[C@@H]1CN([C@H](C)CO)C(=O)CCCn2nncc2CO[C@H]1CN(C)C(=O)Nc1cccc(C(F)(F)F)c1,5,3
C[C@H]1CN([C@@H](C)CO)C(=O)Cc2cc(NC(=O)CCC(F)(F)F)ccc2O[C@H]1CN(C)S(=O)(=O)c1cccs1,-26,-13
COc1ccc(-c2cnc3c(c2)C(=O)N([C@@H](C)CO)C[C@@H](C)[C@@H](CN(C)Cc2ccccn2)O3)cc1,4,-5
CN(C)C(=O)C[C@@H]1CC[C@H](NC(=O)NC2CCCCC2)[C@H](CO)O1,-2,0
C[C@@H]1CN([C@@H](C)CO)C(=O)c2cc(NC(=O)Nc3ccc(F)cc3)ccc2O[C@@H]1CN(C)S(=O)(=O)c1cccs1,-10,-2
COc1ccc2c3c([nH]c2c1)[C@@H](CO)NCC31CN(C(=O)C2CCCC2)C1,11,19
C[C@H](CO)N1C[C@H](C)[C@H](CN(C)S(=O)(=O)c2cn(C)cn2)Oc2ccc(NS(C)(=O)=O)cc2C1=O,3,-5
Cc1ccccc1S(=O)(=O)N1C[C@@H](O)COC[C@H]2O[C@H](CC(=O)O)CC[C@@H]21,20,18
C[C@H]1CN([C@@H](C)CO)C(=O)c2cc(C#Cc3ccncc3)cnc2O[C@@H]1CN(C)CC1CCCCC1,-3,-1
CO[C@@H]1CN(C)C(=O)c2ccc(NC(=O)Nc3ccccc3F)cc2OC[C@@H](C)N(C(C)=O)C[C@@H]1C,13,-2
COc1ccccc1NC(=O)N1CCCCN2[C@H](C1)[C@@H](c1ccc(C#CC3CCCC3)cc1)[C@@H]2CO,u,x
C[C@@H]1CN([C@H](C)CO)C(=O)c2cc(NC(=O)Nc3cccc4ccccc34)ccc2O[C@@H](C)CCCCO[C@@H]1CN(C)S(=O)(=O)c1ccc(Cl)cc1,37,28
C[C@@H]1CN([C@@H](C)CO)C(=O)Cc2cc(NS(=O)(=O)c3ccc(F)cc3)ccc2O[C@@H]1CN(C)Cc1ccc2c(c1)OCO2,20,10
C[C@@H]1CN([C@H](C)CO)S(=O)(=O)c2ccc(/C=C/c3ccccc3)cc2O[C@@H]1CN(C)Cc1cncnc1,u,x
CNC(=O)C[C@@H]1CC[C@H]2[C@H](COc3ccc(NC(=O)Nc4cc(C)cc(C)c4)cc3C(=O)N2C)O1,5,5
CN1C(=O)c2cc(NC(=O)c3cc(F)cc(F)c3)ccc2OC[C@H]2O[C@H](CC(=O)O)CC[C@@H]21,3,2
CO[C@@H](CN(C)S(=O)(=O)c1ccc(C)cc1)[C@H](C)CN(Cc1ccccc1Cl)[C@@H](C)CO,-18,-20
Cc1ccccc1-c1ccc([C@H]2[C@@H](CO)N3CCCCN(C(=O)Nc4cccc(F)c4)C[C@@H]23)cc1,u,x
O=C(Nc1ccc(F)cc1)N[C@@H]1C=C[C@H](CC(=O)N2CCOCC2)O[C@@H]1CO,2,9
C[C@H]1CCCCO[C@@H](CN(C)C(=O)NC2CCCCC2)[C@@H](C)CN([C@@H](C)CO)C(=O)c2cc(NC(=O)Nc3ccc(F)cc3)ccc2O1,-10,-4
CCC(=O)N1CC2(CN(C(C)=O)C2)c2c([nH]c3cc(OC)ccc23)[C@@H]1CO,4,-3
CCCN1C[C@@H](C)[C@@H](OC)CN(C)C(=O)c2ccc(NC(=O)C3CC3)cc2OC[C@@H]1C,3,1
COc1cccc(-c2ccc([C@@H]3[C@H]4CNCC(=O)N4[C@H]3CO)cc2)c1,7,3
CCCC#Cc1ccc2c(c1)O[C@H](CN(C)Cc1ccccn1)[C@@H](C)CN([C@@H](C)CO)S2(=O)=O,u,x
O=C(C[C@@H]1C[C@H]2c3cc(NC(=O)NC4CCCCC4)ccc3O[C@H]2[C@H](CO)O1)NCc1ccncc1,-4,11
Cc1noc(C)c1NC(=O)N(C)C[C@@H]1Oc2ncc(C#CC3CCCCC3)cc2C(=O)N([C@H](C)CO)C[C@@H]1C,-16,-12
COc1ccccc1-c1ccc2n(c1=O)C[C@@H]1[C@@H](CO)[C@H](C(=O)NCC3CC3)N(S(C)(=O)=O)[C@H]21,-1,5
COc1ccccc1C(=O)Nc1ccc2c(c1)OC[C@H](C)NC[C@@H](C)[C@H](OC)CN(C)C2=O,-7,-12
COc1ccc(CN(C)C[C@@H]2OCCCC[C@@H](C)Oc3ccc(NC(=O)CCCN(C)C)cc3C(=O)N([C@H](C)CO)C[C@@H]2C)cc1,10,-4
C[C@@H]1CN([C@@H](C)CO)C(=O)c2cc(NS(=O)(=O)c3cccs3)ccc2O[C@H]1CN(C)Cc1ccc(C(=O)O)cc1,27,13

# Screening data: PubChem, Broad Institute

# A portion of the library; rates above refer to the full screens.
